Assay outcomes as filed in PubChem.
HIV Env fusion: HIV envelope-mediated fusion inhibition; actives 1.1% (n = 360,000); HeLa-JRFL Env/CEM21 cell fusion, luciferase; inhibition, % at 12.3 µM;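 active = mean replicate inhibition score of at least 50 and every replicate individually at or above 50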;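 note: 0% = plate neutral controls and 100% = maraviroc near 300 nM; one replicate is shown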
Rce1 inh: yeast Ras-converting enzyme inhibition; Q03530; yeast membranes, quenched prenylated peptide cleavage fluorescence; calls only; actives 0.27% (n = 290,000); AID 2563;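 active = fall in fluorescence gain of 50% or more versus controls, with final raw signal at or below 3038400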;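 note: plate controls were neutral control wells for no effect and wells lacking membranes for full effect; tested at 10 µM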
PABP FP inh: PABP-poly(A) binding inhibition; P11940; PABP-poly(A) RNA binding, fluorescence polarization; inhibition, % at 35 µM; actives 1% (n = 290,000); AID 2014;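 active = 50% or more with normal probe brightness, or confirmed in later tests; about a fifth of its hits are not listed in these tables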;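 note: calls also rest on retests at 20 µM and on dose response follow-up; controls were probe without protein and protein plus probe with vehicle; some compounds called inactive have numbers as strong as hits; many hits fall short of the cut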
Target sequence (P11940 whole entry, looked up): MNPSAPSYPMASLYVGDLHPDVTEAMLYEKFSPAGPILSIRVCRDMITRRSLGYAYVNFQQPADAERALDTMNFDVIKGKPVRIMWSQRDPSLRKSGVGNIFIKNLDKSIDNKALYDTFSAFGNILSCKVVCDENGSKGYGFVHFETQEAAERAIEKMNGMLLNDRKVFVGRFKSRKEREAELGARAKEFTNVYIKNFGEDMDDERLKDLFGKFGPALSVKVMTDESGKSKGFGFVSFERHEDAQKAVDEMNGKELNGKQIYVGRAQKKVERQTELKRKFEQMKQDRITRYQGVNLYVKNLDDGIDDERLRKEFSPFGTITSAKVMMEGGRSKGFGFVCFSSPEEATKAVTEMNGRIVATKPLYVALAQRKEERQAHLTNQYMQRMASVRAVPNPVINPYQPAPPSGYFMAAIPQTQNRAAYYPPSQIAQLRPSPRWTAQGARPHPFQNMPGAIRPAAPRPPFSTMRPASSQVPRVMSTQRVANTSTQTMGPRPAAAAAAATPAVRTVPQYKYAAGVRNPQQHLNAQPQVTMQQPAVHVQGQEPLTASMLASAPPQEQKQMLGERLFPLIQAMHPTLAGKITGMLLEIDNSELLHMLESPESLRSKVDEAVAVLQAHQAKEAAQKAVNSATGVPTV
CSC inhib: cancer stem cell inhibition | cancer stem cell-like cells viability, luminescence | inhibition, % at 7.5 µM | actives 1.1% (n = 300,000) | AID 2717;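 active = mean at 75% or more and at least half the replicates too; tested in HMLE shEcad cells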;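 note: 0% = median of negative and 100% = median of positive control wells; the first replicate is given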
eIF4H inh: inhibitors of RNA binding by human eIF4H. Q15056. eIF4H fluorescence polarization binding assay. inhibition, % at 35 µM. actives 0.94% (n = 290,000). AID 2012;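 active = 50% or more with normal probe brightness, or confirmed in later tests; about a fifth of its hits are not listed in these tables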;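 note: calls also rest on retests at 20 µM and on dose response follow-up; 0% = protein and probe with vehicle and 100% = probe without protein; strong numbers were not always called active; many hits fall short of the cut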
Yeast UUG start: yeast start codon fidelity modulation; actives 0.13% (n = 350,000); AID 602363; S. cerevisiae UUG-firefly luciferase reporter, luminescence/redox ratio; activity score, % at 18.7 µM;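 active = replicate mean at a twofold rise or more, about +100% in these data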;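 note: firefly luciferase made from a UUG start codon reports start codon fidelity; reporter light over untreated wells divided by growth signal over untreated wells; some hits fall short of that in this replicate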
MT1-MMP act inh: blocks activation of human MT1-MMP. P50281. HT1080 RFP-PRO-GFP cells, GFP/RFP ratio fluorescence, overnight; percent of plate control window, DMSO zero. GFP/RFP ratio change, % at 20 µM. actives 0.061% (n = 360,000);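 active = GFP/RFP ratio change of at least 30% with cell ATP level not reduced by more than half and red fluorescence within 50% of control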; note: strong numbers were not always called active
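Read-out: GFP/RFP fluorescence ratio; Test system: RFP-PRO-GFP reporter HT1080 cells; Compound dosing: single-point 20 µM compound, 1% DMSO; Times: overnight compound exposure at 37 °C.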
MT1-MMP act inh RFP: also measured in MT1-MMP act inh; calls as there; RFP signal change, %; measured here: RFP expression control read;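 0 = vehicle wells; hits needed this value within 50% of zero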
Active calls of the source: *; i = inactive; . = no result given.

SMILES | HIV Env fusion | Rce1 inh | PABP FP inh | CSC inhib | eIF4H inh | Yeast UUG start | MT1-MMP act inh | MT1-MMP act inh RFP
CC1(C)CC(=S)Nc2ccccc2S1 | -16.4 | i | -6.7 | 4.8 | -0.5 | -34.6 | -1.0 | 8.0
Cc1ccc(C)c(OCC(=O)Nc2ccc(C(=O)O)cc2NC(=O)COc2cc(C)ccc2C)c1 | 14.7 | i | -12.9 | 11.9 | 3.5 | -16.0 | -2.9 | -0.1
Nc1nonc1-n1nnc(C(=O)N/N=C/c2ccccc2Cl)c1-c1ccccc1 | 1.6 | i | 2.5 | . | 5.3 | -10.5 | -1.4 | 1.5
COc1ccc(CCNS(=O)(=O)c2ccc3oc(C(=O)O)c(C)c3c2)cc1OC | -11.4 | i | -0.9 | -1.5 | 1.5 | -8.9 | 2.8 | -1.6
O=C(Nc1ccc(S(=O)(=O)Nc2ccccn2)cc1)c1ccc(Cl)cc1Cl | 12.1 | i | -1.4 | -17.1 | 3.2 | -12.1 | 2.2 | -0.5
COc1cc(NC(=O)Cc2cccs2)ccc1-n1cnnn1 | . | i | 4.3 | -8.4 | -2.8 | . | -2.7 | -0.3
CS(=O)(=O)c1ccc2nc(NC(=O)c3cc(-c4ccccc4)nn3-c3ccccc3)sc2c1 | -15.4 | i | -6.6 | 3.6 | 8.1 | -10.5 | -3.0 | -6.8
O=C(CSc1ccccc1F)NCCCN1CCCC1=O | -1.3 | i | . | -2.7 | . | -4.4 | 2.3 | 5.0
CCN(CC)c1ccc(C=Nc2ccc(OC)c(S(=O)(=O)N3CCOCC3)c2)c(O)c1 | . | . | . | 1.6 | . | -8.1 | -2.0 | 0.5
CCn1cc(CN2CCC(n3nccc3NC(=O)C(OC)c3ccccc3)CC2)cn1 (stereo unspecified) | 12.9 | i | -2.0 | 5.5 | -1.7 | 0.5 | 0.0 | 3.9
O=C(Nc1nnc(SCc2ccccc2F)s1)C1=COCCO1 | -356.4 | i | -6.2 | 6.0 | -13.5 | -14.1 | 0.6 | -0.8
COc1ccc(OC)c(-c2csc(CCn3nc(C)cc3C)n2)c1 | 0.8 | i | 4.2 | -11.8 | 4.0 | -5.8 | -1.4 | 3.4
CCc1noc(C)c1C(=O)Nc1nnc(CC(C)C)s1 | 12.2 | i | . | 0.1 | . | 10.8 | -7.9 | -2.0
CCCCC1CCC(C(=O)NCC(c2ccco2)N2CCOCC2)CC1 (stereo unspecified) | 0.9 | i | -0.8 | -2.3 | 2.4 | 1.7 | -3.7 | -3.6
COc1cc2c(cc1OC)CN(C(=O)/C=C/c1ccc([N+](=O)[O-])cc1)CC2 | -5.2 | i | 3.5 | -2.5 | -12.5 | 15.1 | -1.0 | -4.1
O=C1CCCN1CN(C(=O)c1ccccc1)c1ccc(F)cc1 | -77.3 | i | 7.4 | 7.2 | -4.8 | -11.9 | -4.2 | 0.6
CC(C)(C)C(=O)CN1C(=O)C2(OCCO2)c2ccccc21 | . | i | 1.2 | -11.9 | -2.1 | -5.7 | 0.1 | 2.2
CN(C)C=Nc1nonc1N | . | i | 17.0 | -8.4 | -4.2 | -52.3 | 1.7 | 2.2
CC(=O)N1c2ccccc2Nc2ccccc21 | -3.4 | i | 4.1 | -7.7 | 7.8 | . | -0.6 | 4.4
Nc1cc(N)nc(SCC(=O)Nc2ccc3c(c2)OCO3)n1 | -9.9 | i | 0.3 | 3.1 | -3.7 | -20.5 | -1.6 | -2.8
O=C(Cn1ncc2c1-c1ccccc1OC2)Nc1nc2ccccc2s1 | 3.8 | i | 0.1 | -6.1 | -4.5 | -8.5 | 1.7 | 0.1
COc1ccc(-c2ccc(SCc3ccccn3)nn2)cc1OC | 5.0 | i | -3.1 | -7.8 | -3.7 | . | 5.2 | 6.3
CCOc1ccccc1NC(=O)N1CCCC1C(=O)Nc1ccc(NC(C)=O)cc1 (stereo unspecified) | . | i | 0.4 | -21.6 | 10.0 | -14.0 | -3.5 | 1.1
Cc1ccc(-c2nc3ccc(Cl)cn3c2Cc2ccccc2)cc1 | -27.0 | . | . | . | . | -20.2 | -5.8 | -6.0
COc1ccc(NC(=O)C2CCCN(c3cnccn3)C2)c(OC)c1 (stereo unspecified) | 5.0 | i | -8.5 | 4.7 | -15.5 | -4.1 | -0.1 | 3.6
CC(=O)NN1C(=O)c2ccc3c4c(ccc(c24)C1=O)C(=O)N(NC(C)=O)C3=O | 1.7 | i | 5.6 | 41.8 | 15.0 | -2.1 | 0.8 | -12.5
COC(=O)CC1C(=O)NCCN1C(=O)CSc1nc2ccccc2o1 (stereo unspecified) | 12.4 | i | 7.7 | -4.1 | 3.0 | . | 1.5 | 0.9
COc1ccccc1N1CCN(Cc2nc(-c3ccc(F)cc3)oc2C)CC1 | 20.3 | . | -5.7 | -1.8 | 11.7 | . | -0.9 | -1.6
CC(C)(C)NC(=O)C(c1cccs1)N(C(=O)C(=O)NC1CCCC1)c1ccccc1F (stereo unspecified) | 30.4 | i | -9.8 | -8.0 | 4.9 | . | -0.5 | 2.9
COc1cccc(-c2cnc(C(O)c3c(C)cc(C)cc3C)[nH]2)c1 (stereo unspecified) | -4.4 | . | . | . | . | -23.6 | 4.5 | 3.9
COCCNC(=O)c1cc(-c2cccnc2)nc2ccc(Br)cc12 | -34.4 | i | -0.4 | 1.7 | 1.0 | -11.5 | 1.2 | 1.2
Cn1c(=O)c2[nH]c(SCCN3CCOCC3)nc2n(C)c1=S | -2.4 | . | . | . | . | -15.0 | 3.9 | 0.0
O=C(O)CCCc1nc(-c2ccccc2)no1 | -50.1 | i | 1.9 | -5.1 | 4.9 | -27.4 | -1.2 | 1.1
CCOc1ccc2nc(NC(=O)C3(C)CC3(Br)Br)sc2c1 (stereo unspecified) | -78.7 | i | . | 41.4 | . | -7.3 | -5.9 | -11.1
Cc1ccnc(NC(=O)CCC(=O)N(CC(=O)NCc2ccccc2)c2ccc3c(c2)OCO3)c1 | . | i | 14.4 | 2.4 | -4.5 | -9.4 | -6.4 | -0.3
CC(C)(C)OC(=O)N1CCC(CNC(=O)c2ccc(F)cc2F)CC1 | -0.1 | i | 0.8 | -10.7 | -14.8 | -10.1 | 0.3 | -2.7
CCc1ccccc1N1C(=O)[C@@H]2Cc3ccccc3CN2C1=O | -4.7 | i | -5.4 | -0.4 | 5.9 | . | 0.7 | -2.1
CC(C)(C)NS(=O)(=O)c1ccc2[nH]c3c(c2c1)CCCCC3 | 21.5 | i | 5.4 | -13.0 | -13.5 | 1.6 | -1.2 | -7.5
C=CCSc1nc(O)c(C2OC(=O)c3c2ccc(OC)c3OC)c(=O)n1-c1ccccc1 (stereo unspecified) | -0.1 | i | -6.3 | -9.1 | -9.3 | 6.8 | 0.5 | 1.7
O=C(COC(=O)CCC(=O)c1ccc(F)cc1)NCc1ccco1 | 10.9 | i | -1.9 | -10.3 | 9.4 | . | -1.6 | 2.7
COC(=O)c1c(C)oc(C)c1S(=O)(=O)NCc1cccs1 | 6.1 | i | 2.3 | 6.5 | 6.8 | -2.1 | -1.0 | -2.6
Cc1cc(OCCCCCN2CCCC2)ccc1Cl | -23.6 | i | 2.3 | 54.8 | 8.5 | . | -11.6 | -1.1
O=C(NCCN1CCN(Cc2ccccc2)CC1)Nc1cc(Cl)cc(Cl)c1 | 8.2 | i | -15.4 | 26.3 | -11.4 | -4.8 | 0.6 | -6.2
CCc1cc(=O)oc2c3c(cc(OCC(=O)NCc4ccccn4)c12)OC(C)(C)CC3 | . | i | -6.7 | -4.9 | -15.1 | -20.8 | -0.9 | -3.2
CCCCNc1c(-c2ccc(SC3CCCCC3)c(OC)c2)nc2ccc(Cl)cn12 | 24.6 | i | . | 2.6 | . | -2.2 | 2.1 | -2.6
O=c1oc2ccccc2c2nccnc12 | -24.6 | i | 1.7 | 4.3 | -6.3 | -24.0 | 4.3 | 3.1
C=CCNC(=O)NC(=O)COC(=O)CC(NC(N)=O)c1ccc(Cl)cc1 (stereo unspecified) | -4.5 | i | 5.1 | -10.5 | -1.2 | 15.3 | 5.5 | 3.3
O=C(NC1CCN(Cc2ccc3ccccc3c2)CC1)c1ccccc1 | 24.8 | i | -7.7 | . | 1.6 | -25.9 | 1.6 | -3.9
COc1ccc(C2Oc3ccccc3C3=C2C(c2cccs2)n2ncnc2N3)cc1 (stereo unspecified) | -225.7 | i | -0.8 | 53.4 | 0.1 | -19.8 | -41.4 | -34.0
CN(C)C(=S)Nc1cccc(-c2n[nH]c(=S)o2)c1 | -16.5 | i | 9.1 | -3.3 | -9.9 | . | 1.6 | 0.9
O=C(C1=C[C@@H](c2ccc(C(F)(F)F)cc2)C[C@@H](OCCCCO)O1)N1CCCCCCC1 | 30.0 | i | . | -6.9 | . | 6.5 | 1.5 | -0.3
COc1ccc(CC(=O)Nc2cccc(SC)c2)cc1OC | 15.2 | i | 5.8 | . | -3.1 | . | -6.8 | -29.0
NS(=O)(=O)c1ccc(CCNC(=O)c2ccc[nH]c2=S)cc1 | -4.9 | i | -6.8 | -1.0 | -8.8 | -12.4 | -0.1 | 2.5
CC1=C(C(=O)Nc2ccccc2)C2(CCCCC2)C(C#N)=C(S)N1 | . | i | 21.6 | 4.0 | 3.5 | -20.7 | -9.0 | -0.1
C=CCn1c(=S)[nH]c2scc(-c3cccs3)c2c1=O | -2.2 | i | 2.1 | . | 16.6 | -22.3 | 5.6 | 6.2
CC(C)c1cccc(C(C)C)c1OCCCCN1CCCC1 | -14.2 | . | 0.8 | . | -3.8 | 3.3 | 3.2 | 2.6
CCNc1c(NC(=O)c2cccs2)c(=O)oc2ccccc12 | 2.7 | i | -1.9 | 0.9 | -9.4 | -8.5 | -1.4 | 1.1
COc1ccc(N(C(C)C(=O)Nc2ccc(S(=O)(=O)N3CCCCC3)cc2)S(C)(=O)=O)cc1 (stereo unspecified) | -2.5 | i | -0.4 | . | 0.6 | -1.9 | 2.1 | -5.0
Cc1c(N2C(=O)/C(=C/c3cccc4ccccc34)SC2=S)c(=O)n(-c2ccccc2)n1C | 34.8 | i | . | 8.5 | . | -10.0 | 5.6 | -0.7
O=C(NCc1ccccc1)C(c1ccccn1)N(C(=O)c1csnn1)c1ccccc1F (stereo unspecified) | -11.4 | i | 4.3 | 1.5 | 6.6 | 1.2 | -1.4 | 1.3
COc1ccc(N2CC(C(=O)N[C@H](C(=O)NC3CCCC3)C(C)C)CC2=O)cc1 (stereo partly specified) | -11.3 | i | . | 2.6 | . | 1.4 | -1.5 | 2.1
O=C(CN(c1ccc(F)cc1)S(=O)(=O)c1ccc2c(c1)OCCO2)Nc1ccc2c(c1)OCO2 | -49.0 | i | -0.5 | 10.3 | -5.6 | -9.6 | 2.2 | -5.5
O=C(NCCO)C(O)C(O)C(=O)NCCO (stereo unspecified) | 5.1 | i | -0.1 | -3.6 | 3.4 | . | 2.3 | 6.4

Reprinted at random: 6 entries already listed, in no set order.
SMILES | HIV Env fusion | Rce1 inh | PABP FP inh | CSC inhib | eIF4H inh | Yeast UUG start | MT1-MMP act inh | MT1-MMP act inh RFP
COc1ccc(C2Oc3ccccc3C3=C2C(c2cccs2)n2ncnc2N3)cc1 (stereo unspecified) | -225.7 | i | -0.8 | 53.4 | 0.1 | -19.8 | -41.4 | -34.0
O=C(NCCO)C(O)C(O)C(=O)NCCO (stereo unspecified) | 5.1 | i | -0.1 | -3.6 | 3.4 | . | 2.3 | 6.4
CCNc1c(NC(=O)c2cccs2)c(=O)oc2ccccc12 | 2.7 | i | -1.9 | 0.9 | -9.4 | -8.5 | -1.4 | 1.1
Cc1cc(OCCCCCN2CCCC2)ccc1Cl | -23.6 | i | 2.3 | 54.8 | 8.5 | . | -11.6 | -1.1
O=c1oc2ccccc2c2nccnc12 | -24.6 | i | 1.7 | 4.3 | -6.3 | -24.0 | 4.3 | 3.1
O=C(NC1CCN(Cc2ccc3ccccc3c2)CC1)c1ccccc1 | 24.8 | i | -7.7 | . | 1.6 | -25.9 | 1.6 | -3.9
